# Bioassay records: PubChem, Southern Research Specialized Biocontainment Screening Center
# quorum sensing = Vibrio cholerae quorum sensing activators, luminescence (AID 686977). V. cholerae quorum sensing reporter, luminescence, 6 h; higher luminescence means a stronger effect; most inactives read 0. luminescence at 50 µM unless noted, or EC50 in µM where a hit was titrated. 9,400 tested, under 10 active;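 active = light above mean plus 3 SD and confirmed in a dose series; inconclusive = above that limit without a clear retest; inactive = below it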;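 note: raw light counts without normalisation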
# Starred values were filed as active, the others as inactive; u = inconclusive; [ ] = dose if it differs, or a comment. The list is partial; count on the stated rates, not on these rows.
Compound,quorum sensing
Cc1nc2ccccc2c2oc(C(=O)NCc3ccc4c(c3)OCO4)cc12,0
CCN(CC)CCOC(=O)C(c1ccccc1)C1CCCCC1 (stereo not drawn),0[10 µg/mL]
Cc1onc(-c2ccccc2Cl)c1C(=O)Nc1cccc(-c2cn3cccnc3n2)c1,40
Cc1cccc(NC(=O)c2ccc(S(=O)(=O)N(C)C)cc2)c1,0
CC#C[C@]1(O)CC[C@H]2[C@@H]3CCC4=CC(=O)CCC4=C3[C@@H](c3ccc(N(C)C)cc3)C[C@@]21C,40[10 µg/mL]
CCC(C)NC(=O)CN1C(=O)CC(C)(C)S(=O)(=O)c2ccccc21 (stereo not drawn),0
CCN(CC)S(=O)(=O)c1cccc(-c2nnc(SCC#N)n2Cc2ccccc2)c1,40
CC(=O)Oc1ccc(OC(C)=O)c(SCCCCCN2CCOCC2)c1,0
Cc1cc(NC(=O)CCSc2nc(-c3ccco3)cc(C(F)(F)F)n2)no1,0
Cc1cc(NCc2ccccn2)nc2ccccc12,0
CS(=O)(=O)c1nc(-c2ccccc2)cc(C(F)(F)F)n1,0
COCC(=O)NCCSc1c(C)[nH]c2ccccc12,u
CC(=O)NC1=NC(=O)/C(=C/N2CCCCC2)S1,0
Cc1c([C@H]2[C@@H](CC#N)C2(C)C)c2ccccc2n1C,0
CS(=O)(=O)c1cc([N+](=O)[O-])c(Sc2nc3ccccc3[nH]2)c([N+](=O)[O-])c1,0
Cc1ccc(S(=O)(=O)NNc2ccccc2)cc1,0
Cc1ccc2nc(Nc3nc(C)cc(C(F)(F)F)n3)nc(C)c2c1,40
O=C(O)c1ccc2c(c1)OCCO2,40
Cc1ccc(OCC(=O)NNC(=O)C2CCN(c3nc(C)cc(C)n3)CC2)cc1,0
CC(=O)c1ccc(N2C(=NC(=O)C(C)C)SC3CS(=O)(=O)CC32)cc1 (stereo not drawn),0
O=C(CCc1ccccc1)Nc1ccccc1F,40
CC(=O)NCc1nc2ccccc2n1C(C)C,0
CCCCc1nc2n[nH]c(N)c2c2c1CSC(C)(C)C2,0
CCOc1ccc(-n2c(SCC(N)=O)nc3c([nH]c4ccccc43)c2=O)cc1,40
COc1ccc(NC(=O)N(C2CCCCC2)C2CCN(C(C)C)CC2)c(OC)c1,40
COc1cc(/C=N/NC(=O)C(=O)N2CCCC2)ccc1O,40
O=C(c1ccccc1F)N1CCN(Cc2ccccc2F)CC1,40
CC1(C)CC(=O)C(C#N)=C(NCCCO)C1,160
O=C(C1CCCN(S(=O)(=O)Cc2ccccc2)C1)N1CCC(Cc2ccccc2)CC1 (stereo not drawn),0
Cc1oc(-c2ccccc2Cl)nc1CS(=O)CC(=O)NCc1cccs1 (stereo not drawn),0
Nc1nc2ncc(CNc3ccc(C(=O)N[C@@H](CCC(=O)O)C(=O)O)cc3)nc2c(=O)[nH]1,0[10 µg/mL]
O=C(NCCN1CCC(Cc2ccccc2)CC1)C1CCCN(S(=O)(=O)c2cnc[nH]2)C1 (stereo not drawn),40
Cc1cccc(C(=O)N2CCN(Cc3ccc4c(c3)OCO4)CC2)c1,u
CCN(c1cccc(C)c1)S(=O)(=O)c1cnc[nH]1,0
CC(=O)c1c(OC(=O)c2ccco2)c2ccccc2n1C,0
O=[N+]([O-])c1ccc(Sc2nccn2Cc2ccccc2)c([N+](=O)[O-])c1,880
COc1ccccc1CNC(=O)N[C@@H](Cc1ccccc1)C(=O)O,0
O=C(CCn1c(=O)oc2ccccc21)Nc1nc2ccccc2s1,0
COc1ccccc1N1CCN(c2nc3c(C)cccn3c(=O)c2C=O)CC1,0
C=CCn1c(COc2cccc3cccnc23)nnc1SCC(=O)OC,0

# 5 entries picked at random from those above:
Compound,quorum sensing
Cc1oc(-c2ccccc2Cl)nc1CS(=O)CC(=O)NCc1cccs1 (stereo not drawn),0
COc1ccc(NC(=O)N(C2CCCCC2)C2CCN(C(C)C)CC2)c(OC)c1,40
Cc1ccc(S(=O)(=O)NNc2ccccc2)cc1,0
CC(=O)NCc1nc2ccccc2n1C(C)C,0
Cc1cc(NCc2ccccn2)nc2ccccc12,0

# Other entries follow.
Compound,quorum sensing
O=C(O)[C@H](O)[C@@H](O)[C@H](O[C@@H]1O[C@H](CO)[C@H](O)[C@H](O)[C@H]1O)[C@H](O)CO,0[10 µg/mL]
CCC(C)Sc1nc(C)nc2c1c(=O)n(C)c(=O)n2C (stereo not drawn),0
O=C(O)C1CCCCN1S(=O)(=O)c1ccc(Cl)s1 (stereo not drawn),280
COc1ccc(C2NC(=O)c3n[nH]c(C)c32)c(OC)c1 (stereo not drawn),0
C=CCN(c1ccc(C(=O)N2CCN(c3ccc(F)cc3)CC2)cc1)S(C)(=O)=O,0
O=C(NCc1ccccc1)C1(c2ccccc2)CCN(S(=O)(=O)c2ccccc2)CC1,40
COC(=O)CSc1nnc(-c2ccc(S(=O)(=O)NCc3cccs3)cc2)o1,0
CCOC(=O)c1c(C2CCN(C(=O)OCC)CC2)nc2ccccn12,40
CCc1ccc2nc(N3C(=O)C(O)=C(C(=O)c4ccco4)C3c3cccs3)sc2c1 (stereo not drawn),40
Clc1ccc2nc3ccccn3c2c1,0
CC(=O)N1CCN=C1SCc1ccc(Br)cc1,0
CN(C)c1nc(N(C)C)nc(N(C)C)n1,40[10 µg/mL]
CC(C)Cn1c(C(C)NC(=O)Cc2ccccc2)nc2ccccc21 (stereo not drawn),240
COc1cc([C@@H]2c3cc4c(cc3[C@@H](O[C@@H]3O[C@@H]5CO[C@@H](C)O[C@H]5[C@H](O)[C@H]3O)[C@H]3COC(=O)[C@H]23)OCO4)cc(OC)c1O,40[10 µg/mL]
CC1(C)CC(=O)C=C(Nc2ccc(OCC(F)(F)C(F)F)cc2)C1,40
CC(C)C(=O)Nc1c(C(=O)c2ccc(F)cc2)oc2ccccc12,0
Cn1c(Cn2c(=O)sc3ccccc32)nnc1SCC(=O)N1CCOCC1,0
CC(C)Oc1cccc(C(=O)Nc2ccc(NC(=O)c3ccco3)cc2)c1,280
N#Cc1cn(CC(=O)N2CCCC2)c2ccccc12,40
CC(Oc1ccccc1)C(=O)N[C@@H]1C(=O)N2[C@@H]1SC(C)(C)[C@@H]2C(=O)O (stereo partly drawn),40[10 µg/mL]

# New compounds follow.
molecule,quorum sensing
Cc1ccc2c(c1)NC(=O)C(CC(=O)NCCCN1CCc3ccccc3C1)O2 (stereo not drawn),40
Cn1nc(-c2ccc(Cl)cc2)c2cc(C(=O)NCCCN3CCCC3)sc21,0
CCNc1nc2c(c(=O)[nH]c(=O)n2C)n1Cc1ccc(F)cc1,40
CCn1nc(C(=O)O)c(=O)c2cc3c(cc21)OCO3,u
O=C(CN1C(=O)CSc2ncccc21)N1CCOCC1,0
CCN1C(=O)CC(C(=O)O)SC1=Nc1ccc(OC)cc1 (stereo not drawn),200
CCn1c(SCC(=O)NCc2ccc(F)cc2)nc2c(c1=O)SC(C)C2 (stereo not drawn),u
CC1CCN(C(=O)CN2C(=O)C(=O)c3ccccc32)CC1,40
O=C(NCCSc1c[nH]c2ccccc12)C1CC1,40
CCOc1ccc(-c2nnn(CC(=O)NCc3ccco3)n2)cc1,40
CCOc1ccc2c(c1)c(C(C)=O)c(C)n2-c1ccccc1,40
COc1ccc(C(c2sc3nc(C)nn3c2O)N2CCc3ccccc3C2)cc1 (stereo not drawn),u
CC(C)C(C(=O)NC(C)(C)C)N1C(=O)c2ccccc2C1=O (stereo not drawn),40
CCN(CC)c1ccc(CN(C(=O)c2ccco2)C2CCS(=O)(=O)C2)cc1 (stereo not drawn),0
NC(N)=NS(=O)(=O)c1ccc(N)cc1,120[10 µg/mL]
C=CCNC(=O)C1CC(=O)N(c2ccc(C)cc2)C1 (stereo not drawn),160
Cc1[nH]nc2c1C(c1ccccc1F)NC2=O (stereo not drawn),0
COc1ccc(OC)c(S(=O)(=O)N2CCC(C(=O)N3CCc4ccccc4C3)CC2)c1,0
O=C(Nc1c(C(=O)N2CCCCC2)cnn1-c1ccccc1)c1ccccc1,0
N#Cc1nc(-c2ccccc2)oc1NCc1ccco1,40
O=C(c1cc(-c2ccc(Cl)cc2)n(-c2ccc(Cl)c(Cl)c2)n1)N1CCOCC1,240
Cc1cccc(CCNS(=O)(=O)c2ccc3c(c2)n(C)c(=O)c(=O)n3C)c1,0
O=C(O)c1ccc(NC(=O)C2C3CCC(C3)C2C(=O)O)cc1 (stereo not drawn),0
CCN1C(=O)c2cccc3cccc1c23,40
COc1cccc(CN(CC2CCCO2)S(=O)(=O)c2ccc(S(=O)(=O)N(C)C)cc2)c1 (stereo not drawn),0

# Three structures from above, sorted by molecular weight, smallest number first.
molecule,quorum sensing
O=C(O)c1ccc(NC(=O)C2C3CCC(C3)C2C(=O)O)cc1 (stereo not drawn),0
Cc1cccc(CCNS(=O)(=O)c2ccc3c(c2)n(C)c(=O)c(=O)n3C)c1,0
Cc1ccc2c(c1)NC(=O)C(CC(=O)NCCCN1CCc3ccccc3C1)O2 (stereo not drawn),40

# Returning to the listing with the 2 entries that preceded the break.
molecule,quorum sensing
CCN1C(=O)c2cccc3cccc1c23,40
COc1cccc(CN(CC2CCCO2)S(=O)(=O)c2ccc(S(=O)(=O)N(C)C)cc2)c1 (stereo not drawn),0
CCn1c(CCC(=O)Nc2cc(F)ccc2C)nc2cc(S(=O)(=O)N(C)C)ccc21,0
N#CC1=C2SCN(c3ccccc3)CN2C(=O)CC1c1ccccc1Cl (stereo not drawn),40
Cc1nnc(NC(=O)CSc2nnc(Cc3cccn3C)n2-c2cccc(C(F)(F)F)c2)s1,0
CC1CCN(CC(O)COc2cccc(F)c2)CC1 (stereo not drawn),40
Cc1ccc(NC(=O)c2ccc(S(=O)(=O)N3CCOCC3)cc2)nc1,0
Cn1c(=O)oc2cc(S(=O)(=O)N3CCCC(C(=O)Nc4ccc5c(c4)OCCO5)C3)ccc21 (stereo not drawn),0
CCc1ccc(N2C(=O)/C(=C/c3cccs3)N(CC(=O)OC)C2=S)cc1,40
O=c1oc2cc(OCc3nn[nH]n3)ccc2c2c1CCCC2,0
COc1ccc(-c2cc3c(=O)n(CC(=O)NC4CCN(Cc5ccccc5)CC4)ncn3n2)cc1,0
NC[C@@H]1O[C@H](O[C@H]2[C@@H](O)[C@H](O[C@@H]3[C@@H](O)[C@H](N)C[C@H](N)[C@H]3OC3O[C@H](CO)[C@@H](O)[C@H](O)[C@H]3N)O[C@@H]2CO)[C@H](N)[C@@H](O)[C@@H]1O (stereo partly drawn),0[10 µg/mL]
COc1cccc(-c2nc(CS(=O)(=O)CC(=O)N3CCN(c4ccccn4)CC3)c(C)o2)c1,0
CCOC(=O)c1c(C)oc2ccc(O)c(CN(C)C)c12,0
c1ccc(CCc2nc(-c3ccc(-n4cccc4)cc3)no2)cc1,40
Cc1ccc(C(=O)NCCc2csc(C)n2)cc1,40
Nc1nc2n[nH]nc2c(=O)[nH]1,0[10 µg/mL]
CCCc1ccc(Oc2cn[nH]c2-c2ccc(O)c(C)c2O)cc1,0
COc1cc(NC(=O)C2C3C=CC(C3)C2C(=O)O)c(OC)cc1Cl (stereo not drawn),0
CCN(CCO)C(=O)C(c1ccccc1)c1ccccc1,0
CC(=O)c1cc2ccccc2oc1=O,0[10 µg/mL]
O=C1C2CC=C(Cl)CC2C(=O)N1CC1Cc2ccccc2CO1 (stereo not drawn),u
Cc1cc(NC(=O)c2noc3c2CCc2ccccc2-3)n(-c2ccccc2)n1,40
Cc1ccc2[nH]c(=O)c3cc(C(=O)N(C)Cc4ccco4)sc3c2c1,40
Cc1ccccc1-n1c(=O)cc(N2CCc3ccccc32)[nH]c1=O,0
O=C(NCC1CCCO1)c1ccc2ccccc2n1 (stereo not drawn),0
CN1CCN(C(c2ccccc2)c2ccc(Cl)cc2)CC1 (stereo not drawn),0[10 µg/mL]

# Next part; the last two above are carried over.
molecule,quorum sensing
O=C(NCC1CCCO1)c1ccc2ccccc2n1 (stereo not drawn),0
CN1CCN(C(c2ccccc2)c2ccc(Cl)cc2)CC1 (stereo not drawn),0[10 µg/mL]
O=c1[nH][nH]c(C(F)(F)F)c1C=NCc1ccccc1Cl,0
COc1cccc(S(=O)(=O)NCc2ccc(C(=O)NCC3CCCO3)cc2)c1 (stereo not drawn),40
COC(=O)C(C)Sc1nnc(Cc2cc(=O)[nH]c(=O)[nH]2)n1-c1cc(C)ccc1C (stereo not drawn),720
COC(=O)c1cccc(NC(=O)c2ccc3c(c2)C(=O)N(CC2CCCO2)C3=O)c1 (stereo not drawn),40
CN1CCN(CCP(=O)(c2ccccc2)c2ccccc2)CC1,0
CCCSc1nsc(N)n1,0
CCCCC[C@H](O)/C=C/[C@H]1[C@H](O)CC(=O)[C@@H]1CCCCCCC(=O)O,0[10 µg/mL]
Cc1noc(C)c1C(=O)N1CCN(Cc2ccccc2)CC1,0
Cc1ccc2c(Cl)c(C(=O)Nc3cc(C)on3)sc2c1,0
Fc1ccc(/C=N/n2c(-c3cccs3)n[nH]c2=S)cc1,280
CC(C)(C)n1nc2c(c1NC(=O)Cc1cccs1)CSC2,40
O=C(N/N=C/c1cccs1)C1CC(=O)N(c2ccccc2)C1 (stereo not drawn),40
COC(=O)c1c(NC(=O)c2ccc(C)c(S(=O)(=O)Nc3ccccc3C)c2)sc2c1CCCC2,0
O=C(CC1OC(=O)c2ccccc21)c1ccco1 (stereo not drawn),0
O=C1NCCN1c1ncc([N+](=O)[O-])s1,40[10 µg/mL]
Cc1nnc(SCC(=O)OC2CC(C)CCC2C(C)C)[nH]c1=O (stereo not drawn),0
CC(/C=N\N1CCN(c2ccc(Cl)cc2)CC1)=C\c1ccccc1,0
Cc1cc2c(c(C)nn2-c2ccccc2)c(=O)o1,0
O=C(Nc1cccc(Cl)c1)N(CCN1CCOCC1)Cc1ccccc1F,0
CCOC(=O)CN1N=C(/C=C/c2ccc(OC)cc2)CCC1=O,0
CCOc1ccc2nnnn2n1,0
COc1cc2ccc(=O)oc2cc1O,0[10 µg/mL]
CCSc1nnc(NC(=O)c2cccc3ccccc23)s1,0
